A1 apoptosis 2: blocks A1, raising caspase activity; 24,000 tested, under 10 active; AID 2465; caspase activation, % (no concentration beside the values); MEF A1-2A-BIM cells, caspase-Glo luminescence, 3 h; percent of clofoctol response, DMSO zero; in the data active = caspase activation above about 5.9%;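 also: wells of about 30 µL received 50 nL stock; the first replicate is given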
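Material: mouse embryonic fibroblasts co-expressing A1 and BIM (A1-2A-BIM), primed for A1 dependence / Quantity: 2500 cells/well / Buffer or medium: RPMI-1640 growth medium with 10% FBS / Doses: 50 nL compound per well, pinned / Schedule: 3 h compound exposure at 37 °C / Signal: Caspase-Glo luminescence (DEVD substrate) / Measure: Caspase-3/7 activation, seen as rise in luminescence signal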
Starred values were filed as active, the others as inactive.

Start of the listing, in advance, 4 compounds:
SMILES	A1 apoptosis 2
CC(C)NC(=O)N(C)C[C@@H]1OCCCC[C@@H](C)Oc2ccc(NC(=O)Nc3ccc(C(F)(F)F)cc3)cc2C(=O)N([C@@H](C)CO)C[C@@H]1C	0.5
O=C(NO)c1ccc(C(=O)N/N=C/c2ccncc2Br)cc1	1.3
Cc1noc(C)c1S(=O)(=O)Nc1cccc2c1O[C@H](CN(C)Cc1ccc(C(=O)O)cc1)[C@H](C)CN([C@@H](C)CO)C2=O	-0.3
CC(C)NC(=O)N(C)C[C@@H]1Oc2ccc(NC(=O)CCN3CCOCC3)cc2CC(=O)N([C@H](C)CO)C[C@H]1C	2.2

This part in full, repeating the preview:
SMILES	A1 apoptosis 2
CC(C)NC(=O)N(C)C[C@@H]1OCCCC[C@@H](C)Oc2ccc(NC(=O)Nc3ccc(C(F)(F)F)cc3)cc2C(=O)N([C@@H](C)CO)C[C@@H]1C	0.5
O=C(NO)c1ccc(C(=O)N/N=C/c2ccncc2Br)cc1	1.3
Cc1noc(C)c1S(=O)(=O)Nc1cccc2c1O[C@H](CN(C)Cc1ccc(C(=O)O)cc1)[C@H](C)CN([C@@H](C)CO)C2=O	-0.3
CC(C)NC(=O)N(C)C[C@@H]1Oc2ccc(NC(=O)CCN3CCOCC3)cc2CC(=O)N([C@H](C)CO)C[C@H]1C	2.2
C[C@@H]1CN([C@H](C)CO)C(=O)c2cc(NC(=O)CCCN(C)C)ccc2O[C@@H](C)CCCCO[C@H]1CN(C)C(=O)CCCN(C)C	0.0
C[C@@H]1CN([C@@H](C)CO)C(=O)c2cc(NS(=O)(=O)c3ccc(Cl)cc3)ccc2O[C@H]1CN(C)Cc1ccc(C(F)(F)F)cc1	0.4
C[C@H]1CN([C@@H](C)CO)C(=O)c2cc(NC(=O)C3CCCCC3)ccc2O[C@H]1CN(C)C(=O)Nc1ccccc1	0.9
Cc1ccc(S(=O)(=O)Nc2ccc3c(c2)C(=O)N([C@@H](C)CO)C[C@H](C)[C@H](CN(C)S(=O)(=O)c2cn(C)cn2)OCCCC[C@@H](C)O3)cc1	-0.2
C[C@H](CO)N1C[C@H](C)[C@H](CN(C)C)OCCCC[C@H](C)Oc2ccc(NC(=O)Cc3ccccc3)cc2C1=O	1.1
Cc1ccc(S(=O)(=O)Nc2ccc3c(c2)C(=O)N([C@@H](C)CO)C[C@H](C)[C@@H](CN(C)S(=O)(=O)c2cn(C)cn2)OCCCC[C@H](C)O3)cc1	0.1
C[C@H](CO)N1C[C@H](C)[C@H](CN(C)C(=O)Nc2ccccc2)OCCCC[C@H](C)Oc2ccc(NS(C)(=O)=O)cc2C1=O	-0.4
C[C@@H]1CN([C@H](C)CO)C(=O)c2cccc(NS(=O)(=O)c3ccc(F)cc3)c2O[C@@H]1CN(C)C(=O)Nc1ccc2c(c1)OCO2	-0.2

Quoted at random: 3 entries already listed
SMILES	A1 apoptosis 2
C[C@H](CO)N1C[C@H](C)[C@H](CN(C)C)OCCCC[C@H](C)Oc2ccc(NC(=O)Cc3ccccc3)cc2C1=O	1.1
C[C@@H]1CN([C@@H](C)CO)C(=O)c2cc(NS(=O)(=O)c3ccc(Cl)cc3)ccc2O[C@H]1CN(C)Cc1ccc(C(F)(F)F)cc1	0.4
Cc1noc(C)c1S(=O)(=O)Nc1cccc2c1O[C@H](CN(C)Cc1ccc(C(=O)O)cc1)[C@H](C)CN([C@@H](C)CO)C2=O	-0.3

Continued:
SMILES	A1 apoptosis 2
C[C@@H]1CN([C@@H](C)CO)C(=O)c2cc(NC(=O)CCN3CCOCC3)ccc2O[C@@H]1CN(C)Cc1ccncc1	0.7
C[C@@H]1CCCCO[C@H](CN(C)Cc2ccc(C(=O)O)cc2)[C@@H](C)CN([C@H](C)CO)C(=O)c2cc(NS(C)(=O)=O)ccc2O1	0.7
C[C@@H]1CN([C@H](C)CO)C(=O)Cc2cc(NC(=O)CCC(F)(F)F)ccc2O[C@@H]1CN(C)Cc1ccc(C(F)(F)F)cc1	0.5
COc1ccc(NC(=O)N(C)C[C@@H]2Oc3ccc(NC(=O)NC4CCCCC4)cc3CC(=O)N([C@H](C)CO)C[C@H]2C)cc1	-0.1
CC(C)NC(=O)N(C)C[C@@H]1OCCCC[C@@H](C)Oc2ccc(NC(=O)CCC(F)(F)F)cc2C(=O)N([C@H](C)CO)C[C@H]1C	0.4
C[C@@H]1CN([C@@H](C)CO)C(=O)c2cc(NC(=O)C3CCCCC3)ccc2O[C@@H](C)CCCCO[C@@H]1CN(C)C	-1.1
C[C@@H]1CN([C@@H](C)CO)C(=O)c2cc(N(C)C)ccc2O[C@H]1CN(C)C(=O)Nc1ccc2c(c1)OCO2	0.3
CC(C)NC(=O)Nc1ccc2c(c1)C(=O)N([C@H](C)CO)C[C@H](C)[C@H](CN(C)S(=O)(=O)c1ccc(Cl)cc1)O2	-0.3
C[C@H](CO)N1C[C@H](C)[C@H](CN(C)Cc2ccc(C(=O)O)cc2)Oc2ccc(NC(=O)Nc3ccccc3)cc2C1=O	1.0
CC(C)NC(=O)Nc1ccc2c(c1)C(=O)N([C@H](C)CO)C[C@H](C)[C@@H](CN(C)C(=O)C1CCCCC1)OCCCC[C@H](C)O2	-0.7
C[C@@H]1CN([C@@H](C)CO)C(=O)CCCn2cc(nn2)CO[C@@H]1CN(C)Cc1ccc(Cl)c(Cl)c1	-0.5
COc1ccc(S(=O)(=O)N(C)C[C@@H]2Oc3ccc(NC(=O)CCCN(C)C)cc3CC(=O)N([C@H](C)CO)C[C@@H]2C)cc1	-0.6
C[C@@H]1CCCCO[C@H](CN(C)S(=O)(=O)c2cccs2)[C@H](C)CN([C@H](C)CO)C(=O)c2cc(N(C)C)ccc2O1	0.0
C[C@H](CO)N1C[C@H](C)[C@H](CN(C)S(=O)(=O)c2ccc(Cl)cc2)Oc2c(NC(=O)c3ccncc3)cccc2C1=O	-1.0
C[C@@H]1CCCCO[C@H](CN(C)S(=O)(=O)c2cccs2)[C@H](C)CN([C@@H](C)CO)C(=O)c2cc(NC(=O)Nc3cccc4ccccc34)ccc2O1	-0.1
C[C@H]1CCCCO[C@@H](CN(C)C(=O)Nc2ccc(C(F)(F)F)cc2)[C@@H](C)CN([C@@H](C)CO)C(=O)c2cc(NC(=O)c3ccncc3)ccc2O1	-1.5
C[C@@H]1CN([C@@H](C)CO)C(=O)c2cc(N(C)C)ccc2O[C@H]1CN(C)C(=O)Nc1ccccc1	-0.3
C[C@H]1CCCCO[C@H](CN(C)S(=O)(=O)c2ccc(Cl)cc2)[C@@H](C)CN([C@@H](C)CO)C(=O)c2cc(NC(=O)Nc3ccc(F)cc3)ccc2O1	1.0
C[C@H]1CN([C@@H](C)CO)C(=O)c2cc(NC(=O)Cc3cn(C)c4ccccc34)ccc2O[C@@H]1CN(C)Cc1ccc(-c2ccccc2)cc1	1.4
C[C@H](CO)N1C[C@H](C)[C@H](CN(C)Cc2ccc(C(F)(F)F)cc2)Oc2ccc(NC(=O)CCCCCC(=O)Nc3ccccc3N)cc2C1=O	-0.5
CNC[C@@H]1OCCCC[C@@H](C)Oc2ccc(NS(=O)(=O)c3ccccc3)cc2C(=O)N([C@@H](C)CO)C[C@H]1C	2.1
CCO[C@@H]1OC(C(=O)N2CCN(Cc3ccccc3)CC2)=C[C@H](C2CCCCC2)[C@H]1CCCO	0.3
COc1ccc(CN(C)C[C@H]2OCCCC[C@@H](C)Oc3ccc(N(C)C)cc3C(=O)N([C@@H](C)CO)C[C@H]2C)cc1	-0.6
C[C@H]1CN([C@@H](C)CO)C(=O)c2cccc(NC(=O)NC3CCCCC3)c2O[C@H]1CN(C)Cc1ccc(Oc2ccccc2)cc1	1.1
C[C@H](CO)N1C[C@H](C)[C@@H](CN(C)C)OCCCC[C@H](C)Oc2ccc(NC(=O)c3ccccc3)cc2C1=O	0.2
COC(=O)CCCCCCC(=O)N/N=C/c1cc(Br)cc([N+](=O)[O-])c1O	-0.3
CC(C)NC(=O)Nc1ccc2c(c1)CC(=O)N([C@@H](C)CO)C[C@@H](C)[C@@H](CN(C)Cc1ccncc1)O2	-0.3
Cc1ccc(S(=O)(=O)Nc2ccc3c(c2)CC(=O)N([C@H](C)CO)C[C@H](C)[C@@H](CN(C)Cc2ccc(C(F)(F)F)cc2)O3)cc1	-0.8
C[C@@H]1CN([C@H](C)CO)C(=O)c2cc(NC(=O)CCN3CCOCC3)ccc2O[C@H]1CN(C)Cc1ccc(Cl)c(Cl)c1	-0.5
COc1ccc(NC(=O)Nc2cccc3c2O[C@H](CN(C)Cc2ccncc2)[C@@H](C)CN([C@H](C)CO)C3=O)cc1	-0.2
COc1cccc(-c2cnc3c(c2)C(=O)N([C@H](C)CO)C[C@H](C)[C@H](CN(C)S(=O)(=O)c2ccc(F)cc2)O3)c1	1.2
C[C@@H]1CN([C@H](C)CO)C(=O)Cc2cc(NS(C)(=O)=O)ccc2O[C@@H]1CN(C)S(=O)(=O)c1cn(C)cn1	-0.1
C[C@H](CO)N1C[C@H](C)[C@H](CN(C)C(=O)NC2CCCCC2)OCCCC[C@H](C)Oc2ccc(NS(=O)(=O)c3cccs3)cc2C1=O	0.4
COc1ccc(NC(=O)Nc2ccc3c(c2)C(=O)N([C@H](C)CO)C[C@H](C)[C@@H](CN(C)S(=O)(=O)c2ccc(C)cc2)O3)cc1	-0.5
C[C@@H]1CN([C@H](C)CO)C(=O)c2cccc(NC(=O)C3CCOCC3)c2O[C@@H]1CN(C)C(=O)Nc1cccc2ccccc12	1.1
C[C@@H]1CN([C@H](C)CO)C(=O)Cc2cc(NC(=O)Nc3ccc(F)cc3)ccc2O[C@H]1CN(C)Cc1ccccc1	1.0
C[C@H]1CN([C@@H](C)CO)C(=O)c2cc(NC(=O)Nc3ccc(C(F)(F)F)cc3)ccc2O[C@H]1CN(C)CC1CCCCC1	0.8
C[C@H]1CN([C@@H](C)CO)C(=O)Cc2cc(N(C)C)ccc2O[C@@H]1CN(C)Cc1ccc(C(F)(F)F)cc1	1.1
CCO[C@H]1OC(C(N)=O)=C[C@@H](c2csc3ccccc23)[C@@H]1CCCO	0.6
C[C@@H]1CN([C@H](C)CO)C(=O)c2cc(NC(=O)C3CC3)ccc2O[C@H]1CN(C)Cc1ccc2c(c1)OCO2	-0.8
COc1ccc(NC(=O)N(C)C[C@@H]2Oc3ccc(NC(=O)NC(C)C)cc3C(=O)N([C@@H](C)CO)C[C@@H]2C)cc1	-0.1
COc1ccc(NC(=O)Nc2ccc3c(c2)C(=O)N([C@H](C)CO)C[C@@H](C)[C@@H](CN(C)S(=O)(=O)c2ccc(Cl)cc2)OCCCC[C@@H](C)O3)cc1	1.1
Cc1noc(C)c1NC(=O)Nc1ccc2c(c1)CC(=O)N([C@@H](C)CO)C[C@@H](C)[C@@H](CN(C)Cc1ccc(-c3ccccc3)cc1)O2	0.3
C[C@H](CO)N1C[C@H](C)[C@@H](CN(C)S(=O)(=O)c2ccc(F)cc2)Oc2c(NC(=O)C3CCOCC3)cccc2C1=O	1.0
C[C@@H]1CN([C@@H](C)CO)C(=O)c2cc(NC(=O)Cc3cn(C)c4ccccc34)ccc2O[C@H]1CN(C)CC1CCCCC1	0.5
C[C@H]1CN([C@@H](C)CO)C(=O)c2cccc(NC(=O)Nc3ccc4c(c3)OCO4)c2O[C@H]1CN(C)C(=O)NC1CCCCC1	-0.7
COc1ccc(NC(=O)N(C)C[C@@H]2OCCCC[C@H](C)Oc3ccc(NC(=O)CCC(F)(F)F)cc3C(=O)N([C@H](C)CO)C[C@H]2C)cc1	1.2
C[C@@H]1CN([C@H](C)CO)C(=O)c2cc(NC(=O)Nc3ccc(C(F)(F)F)cc3)ccc2O[C@@H](C)CCCCO[C@@H]1CN(C)S(=O)(=O)c1cn(C)cn1	0.8
C[C@H](CO)N1C[C@H](C)[C@@H](CN(C)Cc2ccc(C(=O)O)cc2)Oc2c(NC(=O)c3ccncc3)cccc2C1=O	0.9
C[C@H](CO)N1C[C@H](C)[C@H](CN(C)S(=O)(=O)c2cn(C)cn2)Oc2ccc(NC(=O)Nc3cccc4ccccc34)cc2C1=O	0.2
C[C@@H]1CCCCO[C@@H](CN(C)S(=O)(=O)c2ccccc2)[C@H](C)CN([C@@H](C)CO)C(=O)c2cc(NC(=O)CCC(F)(F)F)ccc2O1	0.9
CCN(CC)c1ccc(/C=N/NC(=O)c2ccc(C(=O)NO)cc2)c(O)c1	-2.0
C[C@@H]1CN([C@@H](C)CO)C(=O)Cc2cc(NC(=O)CCCCCC(=O)Nc3ccccc3N)ccc2O[C@@H]1CN(C)S(=O)(=O)c1ccccc1	-0.7
C[C@@H]1CN([C@@H](C)CO)C(=O)c2cc(NS(C)(=O)=O)ccc2O[C@@H](C)CCCCO[C@H]1CN(C)S(=O)(=O)c1cn(C)cn1	0.6
COc1ccc(COC[C@@]23Oc4ccccc4[C@@H](NC(=O)N2C)[C@H]3CO)cc1	0.1
C[C@@H]1CN([C@H](C)CO)C(=O)c2cccc(NC(=O)Nc3ccc4c(c3)OCO4)c2O[C@@H]1CN(C)Cc1ccc2c(c1)OCO2	1.7
C[C@@H]1CN([C@@H](C)CO)C(=O)Cc2cc(NC(=O)CCCN(C)C)ccc2O[C@@H]1CN(C)S(=O)(=O)c1ccc(Cl)cc1	0.0
Cc1ccc(S(=O)(=O)N(C)C[C@@H]2Oc3ccc(NC(=O)Cn4cnnn4)cc3CC(=O)N([C@@H](C)CO)C[C@H]2C)cc1	3.5
C[C@@H]1CN([C@H](C)CO)C(=O)Cc2cc(NS(C)(=O)=O)ccc2O[C@@H]1CN(C)Cc1ccc(C(F)(F)F)cc1	-1.0
C[C@@H]1CN([C@H](C)CO)C(=O)Cc2cc(NC(=O)Cc3ccccc3)ccc2O[C@@H]1CN(C)CC1CC1	-2.0

Compound activity from PubChem.

Only part of the results is shown; rates above refer to the full screens.
